FGF22 binding: binders of recombinant human FGF22 by thermal shift; Q9HCT0; 1.5% of 340,000 active; SYPRO orange fluorescence; percent of sucrose octasulfate shift, DMSO zero; calls only at 9.99 µM; AID 651658;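 active = melting point raised past a set limit in the mean and every replicate; inconclusive = no clear call; three in four hits are not shown here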
Target sequence (Q9HCT0 whole entry, looked up): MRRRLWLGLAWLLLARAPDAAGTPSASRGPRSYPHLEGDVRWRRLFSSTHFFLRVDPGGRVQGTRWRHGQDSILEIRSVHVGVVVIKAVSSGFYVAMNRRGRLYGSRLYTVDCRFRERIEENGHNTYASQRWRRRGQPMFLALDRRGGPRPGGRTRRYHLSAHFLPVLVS
Calls only. This is a subset; rates above refer to the full screens.

Results for CO[C@H](CN(C)S(=O)(=O)c1ccc(F)cc1)[C@H](C)CN(Cc1ccccc1Cl)[C@@H](C)CO ?
FGF22 binding: inactive

Results for CC(=O)N1CC[C@@H]2[C@H]1c1cc(-c3ccc(C#N)cc3)ccc1N(C)[C@@H]2CO ?
FGF22 binding: inactive

What do the screens show for `COc1cccc(C(=O)N2C[C@H]3[C@@H](c4ccccc42)[C@@H](CO)N3C(=O)NC(C)C)c1`?
FGF22 binding: inactive

What do the screens show for `C[C@@H]1CN([C@H](C)CO)C(=O)c2cc(NC(=O)Nc3ccccc3)ccc2O[C@@H]1CN(C)S(C)(=O)=O`?
FGF22 binding: inactive

Results for COCC(=O)Nc1ccc2c(c1)OC[C@@H](C)N(Cc1cccc(F)c1)C[C@@H](C)[C@H](OC)CN(C)C2=O ?
FGF22 binding: inactive

What do the screens show for `C[C@@H]1CCCCO[C@H](CN(C)CC2CC2)[C@H](C)CN([C@@H](C)CO)C(=O)c2cc(NC(=O)Nc3cccc4ccccc34)ccc2O1`?
FGF22 binding: inactive

What do the screens show for `CC(=O)N1CC2(C1)[C@@H](c1ccc(-c3ccccc3C)cc1)[C@@H](CO)N2C(=O)CC1CC1`?
FGF22 binding: inactive

Results for CO[C@H]1CC[C@H]2CCN(C)C(=O)[C@H](C)[C@@H](OC)CN(C)C(=O)c3cccc(C#N)c3OC[C@@H]1O2 ?
FGF22 binding: inactive

Results for CO[C@H]1CN(C)C(=O)c2cc(NC(=O)C3CC3)ccc2OC[C@@H](C)N(Cc2cccc(F)c2)C[C@H]1C ?
FGF22 binding: inactive

What do the screens show for `CNC[C@H]1Oc2ccc(NC(=O)NC(C)C)cc2CC(=O)N([C@@H](C)CO)C[C@@H]1C`?
FGF22 binding: inactive

Results for C[C@H]1CCCCO[C@H](CN(C)C(=O)Nc2ccc(F)cc2)[C@@H](C)CN([C@@H](C)CO)C(=O)c2cc(NS(=O)(=O)c3ccc(F)cc3)ccc2O1 ?
FGF22 binding: inactive

How did Cc1ccc(S(=O)(=O)Nc2ccc3c(c2)C(=O)N([C@@H](C)CO)C[C@@H](C)[C@@H](CN(C)C(=O)c2ccncc2)OCCCC[C@H](C)O3)cc1 do in these assays?
FGF22 binding: inactive

Results for CCCC(=O)Nc1ccc2c(c1)C(=O)N(C)[C@@H]1CC[C@@H](CC(=O)N3CCCCC3)O[C@H]1CO2 ?
FGF22 binding: inactive

What do the screens show for `C[C@H]1CN([C@@H](C)CO)C(=O)c2cc(NC(=O)C3CC3)ccc2O[C@@H]1CN(C)Cc1ccncc1`?
FGF22 binding: inactive

What do the screens show for `CC(=O)N(C)C[C@@H]1Oc2ncc(-c3ccccc3C)cc2C(=O)N([C@H](C)CO)C[C@@H]1C`?
FGF22 binding: inactive

What do the screens show for `Cc1noc(C)c1S(=O)(=O)Nc1ccc2c(c1)C(=O)N([C@@H](C)CO)C[C@@H](C)[C@@H](CN(C)S(=O)(=O)c1c(C)noc1C)OCCCC[C@@H](C)O2`?
FGF22 binding: inactive

How did CC(C)NC[C@H]1[C@@H](c2ccc(C3=CCCCC3)cc2)[C@@H](CO)N1C(=O)NC(C)C do in these assays?
FGF22 binding: inactive

How did COc1ccc2c3c([nH]c2c1)[C@@H](CO)N(C(=O)C1CCOCC1)CC31CN(Cc2nccs2)C1 do in these assays?
FGF22 binding: inactive

What do the screens show for `CC(C)NC(=O)N(C)C[C@@H]1Oc2ncc(C3=CCCCC3)cc2C(=O)N([C@H](C)CO)C[C@@H]1C`?
FGF22 binding: inconclusive

Results for COc1ccc(NC(=O)Nc2ccc3c(c2)C(=O)N([C@@H](C)CO)C[C@H](C)[C@H](CN(C)Cc2ccc4c(c2)OCO4)O3)cc1 ?
FGF22 binding: inactive

How did CCCN1[C@@H]2c3ccc(-c4ccc(OC)cc4)c(=O)n3C[C@@H]2[C@@H](CO)[C@@H]1C(=O)N(C)C do in these assays?
FGF22 binding: inactive

What do the screens show for `COc1cccc(S(=O)(=O)Nc2ccc3c(c2)[C@H]2C[C@H](CC(=O)N4CCCCC4)O[C@H](CO)[C@H]2O3)c1`?
FGF22 binding: inactive

How did COC(=O)C1=C(C)N(C)C(=NCc2ccc(OC)cc2)NC1c1cccc(Cl)c1 (stereo unspecified) do in these assays?
FGF22 binding: inactive

What do the screens show for `CCCN(C)C[C@@H]1OCCCC[C@H](C)Oc2ccc(N(C)C)cc2C(=O)N([C@H](C)CO)C[C@@H]1C`?
FGF22 binding: inactive

Results for C[C@@H]1CCCCO[C@H](CN(C)C(=O)c2ccncc2)[C@@H](C)CN([C@@H](C)CO)C(=O)c2cc(NC(=O)c3ccncc3)ccc2O1 ?
FGF22 binding: inactive

How did C[C@H]1CN([C@@H](C)CO)S(=O)(=O)c2ccc(-c3cncnc3)cc2O[C@@H]1CN(C)C(=O)NC1CCCC1 do in these assays?
FGF22 binding: inactive

Results for C[C@H](O)C#Cc1ccc2c(c1)O[C@H](CN(C)C(=O)C1CCC1)[C@H](C)CN([C@@H](C)CO)S2(=O)=O ?
FGF22 binding: inactive

What do the screens show for `Cn1cnc(CCNC(=O)C[C@H]2CC[C@@H]3[C@H](COC[C@@H](O)CN3C(=O)Nc3ccccc3)O2)c1`?
FGF22 binding: inactive

What do the screens show for `COc1ccc(NC(=O)Nc2ccc3c(c2)C(=O)N([C@@H](C)CO)C[C@@H](C)[C@@H](CN(C)S(=O)(=O)c2ccc(Cl)cc2)O3)cc1`?
FGF22 binding: inactive

What do the screens show for `C[C@@H]1CN([C@@H](C)CO)C(=O)c2cc(NS(=O)(=O)c3cccs3)ccc2O[C@@H](C)CCCCO[C@H]1CN(C)C(=O)c1ccncc1`?
FGF22 binding: inactive

How did COC(=O)C1=C(C)N(Cc2ccc(F)cc2)C(=S)NC1c1cccc(OC)c1 (stereo unspecified) do in these assays?
FGF22 binding: inactive

What do the screens show for `CC(C)CC#Cc1ccc2c(c1)O[C@@H](CN(C)Cc1ccccn1)[C@@H](C)CN([C@H](C)CO)S2(=O)=O`?
FGF22 binding: inactive

How did O=C(C[C@H]1C=C[C@@H](NC(=O)c2ccc(F)cc2)[C@H](CO)O1)NCCc1ccccc1 do in these assays?
FGF22 binding: inactive

What do the screens show for `CCO[C@H]1OC(C(=O)N2CCCCCCC2)=C[C@@H](C2CC2)[C@@H]1CCCO`?
FGF22 binding: inactive

Results for C[C@H](CO)N1C[C@H](C)[C@@H](CN(C)CC2CC2)Oc2cc(-c3cncnc3)ccc2S1(=O)=O ?
FGF22 binding: inactive

Results for O=C(N[C@H](C(=O)N1CCC[C@H]1C(=O)NCCc1ccccc1Cl)c1ccccc1)c1cccs1 ?
FGF22 binding: inactive

How did CN(C)C(=O)c1cccc(-c2ccc3c(c2)[C@H]2[C@H](CCN2C(=O)c2cccnc2)[C@H](CO)N3)c1 do in these assays?
FGF22 binding: inactive

What do the screens show for `Cc1ccc(S(=O)(=O)N(C)C[C@H]2Oc3ccc(NC(=O)NC(C)C)cc3CC(=O)N([C@@H](C)CO)C[C@@H]2C)cc1`?
FGF22 binding: inactive

How did C[C@@H]1CN([C@H](C)CO)C(=O)c2cc(-c3ccccc3F)cnc2O[C@@H]1CN(C)Cc1ccc(F)cc1 do in these assays?
FGF22 binding: inactive

How did C[C@@H]1CN([C@H](C)CO)C(=O)c2cc(C#Cc3ccccc3)cnc2O[C@H]1CN(C)C(=O)CCN1CCCCC1 do in these assays?
FGF22 binding: inactive

How did CC(C)NC(=O)N(C)C[C@@H]1Oc2ccc(NC(=O)Nc3ccc4c(c3)OCO4)cc2C(=O)N([C@@H](C)CO)C[C@@H]1C do in these assays?
FGF22 binding: inactive

Results for C[C@H]1CN([C@@H](C)CO)C(=O)Cc2cc(NC(=O)Nc3ccc4c(c3)OCO4)ccc2O[C@H]1CN(C)C(=O)NC1CCCCC1 ?
FGF22 binding: inactive

How did COc1ccc(S(=O)(=O)Nc2ccc3c(c2)C(=O)N([C@H](C)CO)C[C@H](C)[C@H](CN(C)Cc2ccc4c(c2)OCO4)OCCCC[C@@H](C)O3)cc1 do in these assays?
FGF22 binding: inactive

Results for O=C(C[C@@H]1CC[C@H]2[C@@H](COC[C@@H](O)CN2C(=O)c2ccncc2)O1)NC1Cc2ccccc2C1 ?
FGF22 binding: inactive

How did Cc1noc(C)c1NC(=O)N(C)C[C@@H]1Oc2ccc(NS(=O)(=O)c3ccc(F)cc3)cc2C(=O)N([C@@H](C)CO)C[C@@H]1C do in these assays?
FGF22 binding: inactive

What do the screens show for `COc1ccc(NC(=O)N(C)C[C@@H]2OCCCC[C@H](C)Oc3ccc(NC(=O)NC(C)C)cc3C(=O)N([C@@H](C)CO)C[C@@H]2C)cc1`?
FGF22 binding: inactive

Results for COCC(=O)N(C[C@@H]1N[C@@H](CO)[C@H]1c1ccc(C2=CCCCC2)cc1)C(C)C ?
FGF22 binding: inactive

Results for COc1ccc2c3c([nH]c2c1)[C@@H](CO)N(C(=O)c1ccncc1)CC31CCN(C(=O)c2ccncc2)CC1 ?
FGF22 binding: inactive

What do the screens show for `C[C@H](CO)N1C[C@H](C)[C@@H](CN(C)Cc2ccc(Oc3ccccc3)cc2)Oc2ccc(NC(=O)CCCN(C)C)cc2C1=O`?
FGF22 binding: active

What do the screens show for `CN(C)C(=O)c1ccc(-c2ccc([C@@H]3[C@@H](CO)N4CCCCN(C(=O)C5CC5)C[C@H]34)cc2)cc1`?
FGF22 binding: inactive

Results for O=C(C[C@H]1CC[C@H](NS(=O)(=O)c2ccc(F)cc2)[C@@H](CO)O1)NCc1ccc(Cl)c(Cl)c1 ?
FGF22 binding: inactive

Results for COc1ccccc1Cc1c(-c2ccc(C)cc2)nc2ccc(C)cn12 ?
FGF22 binding: inactive

How did C[C@H](CO)N1C[C@H](C)[C@H](CN(C)S(C)(=O)=O)Oc2ccc(NC(=O)CCCCCC(=O)Nc3ccccc3N)cc2C1=O do in these assays?
FGF22 binding: inactive

What do the screens show for `CCC(=O)Nc1ccc2c(c1)C(=O)N(C)[C@@H]1CC[C@H](CC(=O)NC3Cc4ccccc4C3)O[C@@H]1CO2`?
FGF22 binding: inactive

Results for C[C@@H]1CN([C@H](C)CO)C(=O)c2cc(NC(=O)c3ccccc3)ccc2O[C@@H](C)CCCCO[C@@H]1CN(C)Cc1ccc(C(F)(F)F)cc1 ?
FGF22 binding: inactive

Results for C[C@@H]1CN([C@H](C)CO)S(=O)(=O)c2ccc(-c3ccccc3)cc2O[C@@H]1CN(C)S(=O)(=O)c1ccccc1F ?
FGF22 binding: inactive

How did C[C@@H]1CN([C@@H](C)CO)C(=O)c2cc(NS(=O)(=O)c3cccs3)ccc2O[C@@H](C)CCCCO[C@H]1CN(C)C(=O)Nc1cccc2ccccc12 do in these assays?
FGF22 binding: inactive

What do the screens show for `O=C(NC[C@@H]1[C@@H](c2ccccc2)[C@@H](CO)N1Cc1cccnc1)c1ccccn1`?
FGF22 binding: inactive

Results for C[C@H]1CN([C@@H](C)CO)C(=O)c2cc(C#CC3CC3)cnc2O[C@@H]1CN(C)C ?
FGF22 binding: inactive

Results for C[C@@H]1CN([C@@H](C)CO)C(=O)c2cc(NC(=O)Nc3ccc(C(F)(F)F)cc3)ccc2O[C@@H](C)CCCCO[C@@H]1CN(C)S(=O)(=O)c1cccs1 ?
FGF22 binding: inactive

What do the screens show for `COc1ccc(NC(=O)N(C)C[C@@H]2OCCCC[C@H](C)Oc3ccc(NS(C)(=O)=O)cc3C(=O)N([C@@H](C)CO)C[C@@H]2C)cc1`?
FGF22 binding: inactive

What do the screens show for `COc1ccc2c3c([nH]c2c1)[C@@H](CO)N(C(=O)NC1CCCC1)CC31CN(S(C)(=O)=O)C1`?
FGF22 binding: inactive

How did Cc1noc(C)c1S(=O)(=O)Nc1ccc2c(c1)CC(=O)N([C@@H](C)CO)C[C@@H](C)[C@@H](CN(C)CC1CC1)O2 do in these assays?
FGF22 binding: inactive

What do the screens show for `C[C@@H]1CN([C@H](C)CO)C(=O)Cc2cc(NC(=O)C3CC3)ccc2O[C@@H]1CN(C)Cc1ccncc1`?
FGF22 binding: inactive

How did CC(C)NC(=O)N1[C@H](CO)[C@H]2c3ccccc3N(C(=O)Nc3ccc(F)cc3)C[C@H]21 do in these assays?
FGF22 binding: inactive

What do the screens show for `COCC(=O)N1CC2(C1)[C@H](c1ccc(-c3ccc(C)cc3)cc1)[C@@H](CO)N2C(C)=O`?
FGF22 binding: inactive

What do the screens show for `COCC(=O)Nc1ccc2c(c1)C(=O)N(C)[C@@H]1CC[C@H](CC(=O)NCc3ccccc3)O[C@@H]1CO2`?
FGF22 binding: inactive

How did O=C(C[C@@H]1CC[C@H]2[C@@H](COC[C@@H](O)CN2S(=O)(=O)c2ccc(F)cc2)O1)NCc1ccc(Cl)c(Cl)c1 do in these assays?
FGF22 binding: inactive

What do the screens show for `C[C@@H](NC(=O)C[C@@H]1C=C[C@H](NC(=O)C2CC2)[C@H](CO)O1)c1ccccc1`?
FGF22 binding: inactive

Results for C[C@@H]1CCCCO[C@H](CN(C)C(=O)Nc2ccc3c(c2)OCO3)[C@H](C)CN([C@H](C)CO)C(=O)c2cc(NC(=O)c3ccncc3)ccc2O1 ?
FGF22 binding: inactive

What do the screens show for `COc1cccc(NC(=O)N[C@@H]2CC[C@H](CC(=O)N3CCN(C)CC3)O[C@H]2CO)c1`?
FGF22 binding: inactive
